# Sa growth 42C = S. aureus growth inhibition at 42 and 30 °C, primary screen, LtaS inhibitor project, RN4220, two temperatures; OD600, 20 h, 42 °C; stronger effect = lower value; relative growth, % (concentration not given with the values); actives 0.53% (n = 170,000);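 active means growth at 42 °C up to 50% and 20 or more points under that at 30 °C, or under 10% at both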;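 further: 300 nL library stock went into each well; scaled to the means of positive and negative controls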
# HCMV NEC inh = inhibitors of HCMV UL50-UL53 interaction, biochemical, HTRF | HCMV UL50-UL53 nuclear egress complex (human cytomegalovirus) | normalized percent inhibition | inhibition, % (no concentration beside the values) | actives 0.15% (n = 190,000) | AID 1918969, 2023;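 active means both replicates at 50% or more, plus weaker picks with an unusually low signal ratio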;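 further: stock transfer was 100 nL into about 20 µL; 0% = negative control wells and 100% = wells with untagged competitor protein; inactives centre near -12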
# GIV-Gai inh = inhibitors of GIV peptide binding to Galpha-i3, primary screen, biochemical, fluorescence polarization, FITC-GIV GBA peptide, rat Galphai3. AID 1224905, 2016. 90 min; stronger effect = lower value; scaled: aluminum fluoride 0%, vehicle 100%. actives 0.42% (n = 210,000). percent of control (FP), % (concentration not given with the values). Guanine nucleotide-binding protein G(i) subunit alpha-3 (Rattus norvegicus), P08753;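 active means replicate mean at 85% of control or lower, very high polarization wells dropped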;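 further: wells of about 15 µL received 100 nL stock; the first replicate is given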
# Target sequence (P08753 whole entry, looked up): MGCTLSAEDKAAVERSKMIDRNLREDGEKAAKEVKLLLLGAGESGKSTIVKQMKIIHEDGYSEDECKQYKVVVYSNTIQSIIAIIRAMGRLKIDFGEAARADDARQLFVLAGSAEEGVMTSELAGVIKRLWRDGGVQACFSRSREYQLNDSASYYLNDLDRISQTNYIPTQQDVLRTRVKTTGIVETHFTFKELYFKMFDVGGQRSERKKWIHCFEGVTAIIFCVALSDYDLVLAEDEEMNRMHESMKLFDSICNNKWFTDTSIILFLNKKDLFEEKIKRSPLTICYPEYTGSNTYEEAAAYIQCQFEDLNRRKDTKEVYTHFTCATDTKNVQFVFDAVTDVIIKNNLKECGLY
# Sa growth 42C second temp = further read-out of Sa growth 42C, marked with its call; relative growth, %; measured here: growth at 30 °C;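 optical density after 20 h as mean of two plates; 100% = untreated growth and lower means inhibition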
# Numbers without * were called inactive; . = no result given; & = joins results of further samples. Rows were taken by chance; any-hit rate near 0.83%.
SMILES,Sa growth 42C,Sa growth 42C second temp,HCMV NEC inh,GIV-Gai inh
CCc1nnc2ccc(C(=O)N[C@H](CC)CO)cn12,.,.,-3,104
Cc1ccc(C(=O)Nc2cccc(O)c2)cc1,120,102,-7,105
CN(C)CCNC(=O)Cn1ccc2cc(S(=O)(=O)N3CCCCCC3)ccc21,86,96,.,108
Cc1ccccc1-c1nc(C2CCCCC2)no1,94,73,-11,95
CCCS(=O)(=O)Nc1ccc2c(c1)CC(=O)N2CC,.,.,-28,107
CC(C)c1ccc(N=Cc2cccs2)cc1,99,101,17,.
Cc1cccc(COc2ccc(-c3cc(C(F)(F)F)n4nc(C)cc4n3)cc2)c1,97,87,1,103
CCN(CC)c1ccc(C(F)(F)F)cn1,99,100,14,102
O=C1C2CC=C(Cl)CC2C(=O)N1CCO (stereo not given),85,98,9,104
CC(C)(C)N1NC2(CCCCC2)NC1=S,121,90,.,103
CCC12CN3CC(CC)(CN(C1)C3c1ccc(C)cc1)C2O (stereo not given),.,.,-14,97
Cc1cccc(NC(=O)CSc2cn(CC(=O)N3CCC(C)CC3)c3ccccc23)c1C,105,93,.,113
Cc1cc(CSc2nnc(-c3ccccc3)c3ccccc23)no1,56,68,-18,.
C=CCn1c(=O)c2ccccc2n2c(SCC(=O)c3ccc[nH]3)nnc12,84,88,-24,.
Cc1ccc(S(=O)(=O)n2c(CN3CCCC(C)C3)nc3ccccc32)cc1 (stereo not given),112,91,-1,106
CCCNS(=O)(=O)c1cc2c3c(c1)c(C)cc(=O)n3CCC2,93,78,.,97
O=C(Nc1ccc([N+](=O)[O-])cc1)C1COc2ccccc2O1 (stereo not given),.,.,-7,104
Cc1cccc(N2CCN(Cc3csc(C)c3C)CC2C)c1 (stereo not given),82,70,-12,103
Cc1ccc(NC(=O)CN2C(=O)CSc3ccc(C(=O)N4CCCC4)cc32)nc1,.,.,-37,111
CCCOc1ccc(C(=O)CCC(=O)O)cc1OCCC,95,98,-7,.
Cc1ccc(CCNC(=O)CN(c2ccc(C)cc2)S(=O)(=O)N(C)C)cc1,106,81,-30,99
COc1ccc2[nH]cc(CCNC(=O)C3CCN(S(=O)(=O)c4ccc5c(ccn5C)c4)CC3)c2c1,.,.,-19,105
Cc1cc(=O)n2c(n1)NC(Nc1ccc(C)c(C)c1)=NC2c1ccc(Cl)cc1 (stereo not given),.,.,-13,99
CCCCOC(=O)c1c(C)oc2ccc(NS(=O)(=O)c3ccc(F)cc3C)cc12,107,92,-7,98
Cc1ccc(NC(=O)Cn2cnc3sc(C)c(S(=O)(=O)N4CCN(c5ncccn5)CC4)c3c2=O)cc1F,106,94,-24,105
CCOC(=O)c1ccc(Nc2nc(C)cc(C)n2)cc1,88,90,-21,102
CCOC(=O)/C(C#N)=C/Nc1sccc1C#N,15,6,-50,.
Cc1[nH]ncc1-c1nc(-c2ccc(Cl)cc2)no1,80,83,-16,106
CCN(CC)C(=O)Cn1cnc2ccccc2c1=O,100,89,16,100
CC1(C)CC(NCc2cccs2)CC(C)(C)N1,85,89,-7,.
CCCNC(=O)CC1C(=O)N(Cc2ccccc2)C(C)c2nc3ccccc3n21 (stereo not given),94,84,-10,98
CCC(=O)Nc1sc2c(c1C(=O)Nc1cccc(C)c1)CCCC2,79,77,.,101
COc1cccc(CNC(=O)CSc2ncc(-c3cccc(Cl)c3)o2)c1,.,.,-41,109
CC(=O)c1ccc(N2CCN(c3nc4c(S(=O)(=O)c5ccccc5)nnn4c4ccc(Cl)cc34)CC2)cc1,102,85,-34,102
CCOC(=O)C(C)n1nc(CC)n2c(cc3occc32)c1=O (stereo not given),98,90,-12,107
COC(=O)Oc1c(Br)c(=O)oc2ccccc12,110,100,-6,103
CC(C)(C)C1(C)OC(=O)C(=Cc2ccccc2Cl)C(=O)O1 (stereo not given),77,78,.,91
CCCCOc1cccc(C(=O)N(Cc2sccc2C)C2CCS(=O)(=O)C2)c1 (stereo not given),99,84,-5,101
Cc1ccccc1CSc1nc2cccnc2n1Cc1ccc(C(=O)NCCc2cccs2)cc1,139,107,.,102
Cc1cc(N=Cc2ccc(N3CCOCC3)cc2)ccc1Br,106,84,-34,.
O=C(/C=C/c1cccs1)Nc1ccc(Nc2ccccc2)cc1,94,91,-6,.
O=C1CC(c2ccccc2Cl)Oc2ccccc21 (stereo not given),96,47,0,104
O=C(Nc1ccc(Cl)c(Cl)c1)N(Cc1ccccc1)Cc1ccccc1,75,84,-16,.
COc1ccc(N2CCN(C(=O)CCn3c(=O)[nH]c4cc(OC)c(OC)cc4c3=O)CC2)cc1,100,94,2,100
CCN1c2ccccc2-c2nc(SCC(=O)NCc3ccc(Cl)cc3)ncc2S1(=O)=O,121,73,.,103

# Seven structures from above, ordered by number of heavy atoms, highest first:
SMILES,Sa growth 42C,Sa growth 42C second temp,HCMV NEC inh,GIV-Gai inh
CC(=O)c1ccc(N2CCN(c3nc4c(S(=O)(=O)c5ccccc5)nnn4c4ccc(Cl)cc34)CC2)cc1,102,85,-34,102
Cc1ccccc1CSc1nc2cccnc2n1Cc1ccc(C(=O)NCCc2cccs2)cc1,139,107,.,102
COc1ccc(N2CCN(C(=O)CCn3c(=O)[nH]c4cc(OC)c(OC)cc4c3=O)CC2)cc1,100,94,2,100
O=C(Nc1ccc(Cl)c(Cl)c1)N(Cc1ccccc1)Cc1ccccc1,75,84,-16,.
CCC(=O)Nc1sc2c(c1C(=O)Nc1cccc(C)c1)CCCC2,79,77,.,101
CC(C)(C)C1(C)OC(=O)C(=Cc2ccccc2Cl)C(=O)O1 (stereo not given),77,78,.,91
O=C1CC(c2ccccc2Cl)Oc2ccccc21 (stereo not given),96,47,0,104

# Back to the main list with the four entries that preceded the break.
SMILES,Sa growth 42C,Sa growth 42C second temp,HCMV NEC inh,GIV-Gai inh
O=C1CC(c2ccccc2Cl)Oc2ccccc21 (stereo not given),96,47,0,104
O=C(Nc1ccc(Cl)c(Cl)c1)N(Cc1ccccc1)Cc1ccccc1,75,84,-16,.
COc1ccc(N2CCN(C(=O)CCn3c(=O)[nH]c4cc(OC)c(OC)cc4c3=O)CC2)cc1,100,94,2,100
CCN1c2ccccc2-c2nc(SCC(=O)NCc3ccc(Cl)cc3)ncc2S1(=O)=O,121,73,.,103
C#CC(C)(C)NS(=O)(=O)c1cc(-c2nnc(Nc3ccc(C)cc3)c3ccccc23)ccc1C,110,97,6,114
COCCn1c(C)cc(O)c(C(c2ccc(F)cc2)N2CCC(C)CC2)c1=O (stereo not given),68,87,.,99
Cc1c(N/C=C/C(=O)c2cccs2)c(=O)n(-c2ccccc2)n1C,95,120,-55,112
Cc1cccc(-c2nc(C#N)c(NCc3ccccc3)o2)c1,69,91,4,113
CCS(=O)c1ccccc1C(=O)OCC(=O)NCc1ccc(Cl)cc1 (stereo not given),103,84,-2,.
CCCCCc1ccc(C(=O)CCN(C)C)cc1,-0.1*,-0.2*,-7,109
Cn1c(CN2CCCCC2)nc2cc(NC(=O)c3ccc(Cl)cc3)ccc21,107,106,17,109
Cc1nnc(NCCc2ccccc2)n(N)c1=O,104,82,.,103
COc1ccc(Cl)cc1NC(=O)N1CCC(CN2CCc3ccccc3C2)CC1,91,84,.,107
Cc1ccc(N2CCN(C(=O)c3nn(C)c4c3CS(=O)(=O)c3ccccc3-4)CC2)c(C)c1,106,90,-13,103
COc1ccc(Cn2c(C(=O)O)c(CNCc3ccco3)c3ccc(C)cc32)cc1,118,93,.,105
O=S(=O)(NCCc1ccccn1)c1cc(Cl)cc(Cl)c1O,45,25,-29,.
O=Cc1c(O)c2ccccc2c2ccccc12,9.1*,6.5*,-27,44*
N#CC1=C(SCc2ccccc2)SC(c2ccccc2O)NC1=O (stereo not given),85,33,.,103
CCN(CC)/C(C)=N/C(=O)Nc1ccccc1,116,49,-5,104
O=C(NCCO)NC12CC3CC(CC(C3)C1)C2,94,90,-14,108
Cc1ccc2nc(NC(=O)CSc3cc(C)[nH]c(=O)n3)sc2c1,139,80,.,105&105
CC(=O)Nc1ccc(NC(=O)C2CC(=O)N(CCc3c[nH]c4ccc(Cl)cc34)C2)cc1 (stereo not given),.,.,-8,104
Cc1cc(C)c2c(C)cc(=O)n(C)c2n1,88,84,-20,.
Cc1ccc(C(=O)Nc2ccc(S(=O)(=O)Nc3nc(C)cc(C)n3)cc2)cc1,.,.,0,106
O=C(NCCOc1ccccc1)C1CCCCC1,104,89,-29,.
CCCOc1ccc(-c2nc(N)n[nH]2)cc1,79,81,-4,104
Cc1c(C(=O)NCCc2ccccc2)oc2ccc(S(=O)(=O)N3CCCC3)cc12,86,90,-29,102
Cc1cc(C)n2nc(CN(C(=O)C(C)C)c3ccc(Cl)cc3)nc2n1,.,.,15,107
O=C(NCCn1c(-c2ccc(F)cc2)nc2cccnc21)Nc1cccc(Cl)c1,.,.,0,110
O=c1oc2ccc(Br)cc2cc1-c1nnc(-c2ccccc2)o1,99,86,-9,100
O=C(CCN(CCc1ccccc1)C(=O)c1cccc(F)c1)N1CCNCC1,.,.,30,101
CC1=C(c2ccc(C)c(C)c2)S(=O)(=O)NC1=NCCCN1CCC(Cc2ccccc2)CC1,.,.,-27,102
C=C/C(=C\C=C/C)N1C(=O)SC(Nc2ccc(C(=O)O)cc2)C1=O (stereo not given),99,95,-6,.
COc1ccc(C2=NN(C(=O)c3cccc([N+](=O)[O-])c3)C(c3cccc([N+](=O)[O-])c3)C2)cc1 (stereo not given),.,.,-28,104
O=C(CSc1nc2ccccc2nc1N1CCCC1)N1CCN(c2ccc(F)cc2)CC1,.,.,-25,107
COCCNC(=O)CN1CCN(c2ccc(C(=O)O)cc2NC(=O)c2ccccc2Cl)CC1,.,.,-27,99
COC(=O)c1cccc(NC(=O)COC(=O)c2ccc(N3C(=O)CCC3=O)cc2)c1,96,85,-32,104
N#C/C(=C1\CCCN1)c1nc(-c2ccccc2)cs1,87,92,12,.
CC(=O)NCCOc1cccc2ccccc12,99,96,-12,101
CSc1n[nH]c(-c2ccccc2)c1C#N,102,82,-8,100
Cc1noc(C)c1S(=O)(=O)N(CC(=O)NCc1ccccc1Cl)c1ccc(C(C)C)cc1,108,89,-27,106
CSc1sc(C(=O)O)c2c1S(=O)(=O)N(C)c1ccccc1-2,126,89,-77,97
CC1(C)CC(N2C(=O)OC(C)(C3CC4C=CC3C4)C2(C)O)CC(C)(C)N1 (stereo not given),116,90,-1,.
C=CCNc1nc(N(c2ccccc2)c2ccccc2)nc(-n2ccnc2)n1,88,83,-6,.
CC(C)CC(=O)Nc1ccc(S(=O)(=O)Nc2cc3c(cc2N2CCOCC2)n(C)c(=O)c(=O)n3C)cc1,120,73,.,102
COc1cc(NC(=O)CN2C(=O)C(c3ccc(C)cc3)=NC23CCCCC3)cc(OC)c1,94,84,-15,102
CC(C)CC(=O)NCC(c1ccc2c(c1)OCO2)N1CCN(c2ccccc2)CC1 (stereo not given),102,87,.,95
CCn1c(C(=O)O)c(CC(=O)N2CCN(c3ccc(F)cc3)CC2)c2ccccc21,.,.,1,103
O=C1CSC(/C=C/c2ccccc2)N1c1cc(Cl)ccc1Cl (stereo not given),75,72,-1,.
CCOC(=O)C1CCCN(C(=O)c2ccc(F)cc2)C1 (stereo not given),96,84,-18,.
O=C1c2cccc3cccc(c23)N1S(=O)(=O)c1ccc(Br)cc1,84,89,.,98
Fc1ccc(-c2noc3ncnc(NCCCN4CCN(c5ccccc5)CC4)c23)cc1,85,84,.,102
O=C(N/N=C/c1cccc(O)c1)c1ccc(-n2cnnn2)cc1,93,97,-34,.
Cc1nc2cc(-c3noc(-c4ccc5c(c4)OCO5)n3)ccc2n(C2CCCC2)c1=O,.,.,-1,104
Cc1cccc(NC(=O)c2cc(CN3CCOCC3)on2)c1C,90,95,.,99
CCCc1nc2sc3c(c2c(=O)n1N)CCCC3,102,95,8,103
Cc1ccc2c(c1)N(S(=O)(=O)c1cc(-c3onc(C)c3C)ccc1C)CCO2,99,92,.,106
N#Cc1c(-c2ccc(Cl)cc2)c2c([nH]c1=O)-c1ccccc1OC2,95,74,33,98
COc1ccc2nc(NC(=O)CNS(=O)(=O)c3cccs3)sc2c1,93,58,.,104
CC1C(=O)CCC2C(C)(COc3ccc4ccc(=O)oc4c3)CCCC12C (stereo not given),74,56,-14,.
O=C(Nc1ccc2nc3n(c(=O)c2c1)CCCCC3)c1cccc(C(F)(F)F)c1,100,86,3,107
O=C(CSc1nc2nccnc2c(=O)n1CCc1c[nH]c2ccccc12)Nc1ccccc1,87,74,-12,103
CC(=O)N1C(C(=O)NCc2ccc(C)cc2)CSC12CCN(C)CC2 (stereo not given),91,92,.,110
O=C(COC(=O)c1cccnc1Cl)Nc1ccccc1C(F)(F)F,106,101,9,.
CCOCCCNC(=O)C(c1ccc(C)cc1)N(Cc1ccc2c(c1)OCO2)C(=O)c1cnccn1 (stereo not given),.,.,-17,100

# Bioassay records as filed in PubChem BioAssay.
